Screens deposited in PubChem by National Center for Advancing Translational Sciences (NCATS).
Vaccinia mCherry: vaccinia inhibition (mCherry reporter); Vaccinia virus mCherry reporter infection, fluorescence; about a quarter of the inactives have no number; Potency, µM (highest dose often 36.5 µM), without a hit: at the highest dose activity change, negative = inhibition, most hits filed as inhibitors; 0.63% of 310,000 active; AID 720579; active = well fitted inhibition curve with a large enough effect; inconclusive = small, poorly fitted or top-dose-only effect; inactive = no such curve, though single readings can be large or run the other way; tested in A549 cells; note: nearly all actives have a fitted effect of over 35% in size; inactives centre near -10
Vaccinia Venus: vaccinia inhibition (Venus reporter). Vaccinia virus Venus reporter expression, fluorescence. Potency, µM (top dose mostly 36.5 µM), without a hit: top-dose activity change, negative = inhibition, actives largely listed as inhibitors. 0.46% of 330,000 active; active means well fitted inhibition curve with a large enough effect; inconclusive means small, poorly fitted or top-dose-only effect; inactive means no such curve, though single readings can be large or run the other way; tested in A549 cells; note: nearly all actives have a fitted effect of over 30% in size; inactives centre near -10
Starred values were filed as active, the others as inactive; & = joins results of further samples; [ ] = dose if it differs, or a comment. % is set by controls: 0 for no effect and ±100 for the full control effect; potency is the fitted concentration of half-maximal effect. Compounds as they come; 0.87% or so of the library scored in one or more.

Cc1ccc(C)c(CN2C(=O)c3ccccc3S(=O)(=O)c3ccc(C(=O)Nc4ccccc4C(F)(F)F)cc32)c1 was read as Vaccinia mCherry -8% and Vaccinia Venus -7%.
Screening Cc1ccccc1CN1C(=O)CSCC1(C)C(=O)Nc1ccc2c(c1)OCCO2 (stereo not given) returned Vaccinia mCherry -13% and Vaccinia Venus -12%.
For O=c1onc(-c2cccs2)n1Cc1ccccc1 the results were Vaccinia mCherry -15% and Vaccinia Venus 6%.
For C=CCOc1ccc(/C=C2/C(=N)N3N=C(CC(=O)N4CCCC4)SC3=NC2=O)cc1OC the results were Vaccinia mCherry inactive[7.34 µM] and Vaccinia Venus -3%[7.34 µM].
For CCn1nc(C(=O)O)c(=O)c2cc3c(cc21)OCO3 the results were Vaccinia mCherry -16%&-9% and Vaccinia Venus -14%&0%.
Screening Cc1ccc(NC(=O)CN(C)Cc2ccc(F)cc2)c([N+](=O)[O-])c1 returned Vaccinia mCherry inactive and Vaccinia Venus -7%.
For Nc1cc(C(=O)N/N=C/c2cccc([N+](=O)[O-])c2)n[nH]c1=O the results were Vaccinia mCherry -7% and Vaccinia Venus 9%.
CC(=O)NC1(C(F)(F)F)C(=O)Nc2c1c(=O)[nH]c(=O)n2-c1ccccc1 (stereo not given) was read as Vaccinia mCherry -8% and Vaccinia Venus -3%.
CCN1CCN(C(=O)c2ccc3c(c2)N(Cc2c(F)cccc2Cl)C(=O)c2ccccc2S3)CC1 was read as Vaccinia mCherry -6%[7.34 µM] and Vaccinia Venus -4%[7.34 µM].
For O=C(Nc1ccccc1)O/N=C1/CCCc2occc21 the results were Vaccinia mCherry inconclusive and Vaccinia Venus 3%.
For O=C(NCc1cccc(Cl)c1)C1Cc2c(-c3ccccc3Oc3ccccc3)ccnc2O1 (stereo not given) the results were Vaccinia mCherry 25% and Vaccinia Venus -8%.
For Cc1ccccc1-n1c(SCC(=O)N2CCOCC2)nc(O)cc1=O the results were Vaccinia mCherry -4% and Vaccinia Venus 1%.
`Cc1cc(C)nc(-n2nc(C)c(Sc3ccc(F)cc3)c2N)n1` gave Vaccinia mCherry -15% and Vaccinia Venus -9%.
Cc1cc(C(F)(F)F)nc(NCc2ccc(F)cc2)n1 was read as Vaccinia mCherry -13% and Vaccinia Venus -12%.
`CCOC(=O)C1=CCN(S(=O)(=O)c2ccccc2Cl)C1c1cccc(Cl)c1` (stereo not given) gave Vaccinia mCherry 29% and Vaccinia Venus -5%.

By substructure, the entries above containing four or more nitrogen atoms
For C=CCOc1ccc(/C=C2/C(=N)N3N=C(CC(=O)N4CCCC4)SC3=NC2=O)cc1OC the results were Vaccinia mCherry inactive[7.34 µM] and Vaccinia Venus -3%[7.34 µM].
For Nc1cc(C(=O)N/N=C/c2cccc([N+](=O)[O-])c2)n[nH]c1=O the results were Vaccinia mCherry -7% and Vaccinia Venus 9%.
CC(=O)NC1(C(F)(F)F)C(=O)Nc2c1c(=O)[nH]c(=O)n2-c1ccccc1 (stereo not given) was read as Vaccinia mCherry -8% and Vaccinia Venus -3%.
`Cc1cc(C)nc(-n2nc(C)c(Sc3ccc(F)cc3)c2N)n1` gave Vaccinia mCherry -15% and Vaccinia Venus -9%.

Additional records:
Screening O=C(Nc1nnc(SCc2ccc(Cl)cc2)s1)c1cnccn1 returned Vaccinia mCherry -14% and Vaccinia Venus -10%.
`CN1CCCN(C(=O)CSc2ccccc2)CC1` gave Vaccinia mCherry -2% and Vaccinia Venus -7%.
For CCCCOC(=O)/C(=C\c1ccc([N+](=O)[O-])o1)NC(=O)c1ccccc1 the results were Vaccinia mCherry -4% and Vaccinia Venus -7%.
`NC(=O)NNC(=S)Nc1cccc2ccccc12` gave Vaccinia mCherry inactive and Vaccinia Venus 12%.
Cc1nc2ccccc2nc1OCC(=O)Nc1ccccc1 was read as Vaccinia mCherry inactive and Vaccinia Venus -7%.
CC(=O)N1N=C(c2ccc([N+](=O)[O-])cc2)CC1c1ccccc1Cl (stereo not given) was read as Vaccinia mCherry -28% and Vaccinia Venus -7%.
`COCCNc1nc(NCc2cc(-c3ccc(OC)cc3)no2)c2sccc2n1` gave Vaccinia mCherry inconclusive and Vaccinia Venus -27%.
Screening CCN(CC(=O)Nc1ccccc1C(F)(F)F)C(=O)C1CCC1 returned Vaccinia mCherry -15% and Vaccinia Venus -8%.
Screening O=S(=O)(NCC(c1ccco1)N1CCN(c2ccc(F)cc2)CC1)c1ccc2c(c1)OCCO2 (stereo not given) returned Vaccinia mCherry inconclusive and Vaccinia Venus -20%.
For CC(=O)c1ccc(N2CCN(C(=O)c3ccc(Cn4c(=S)[nH]c5ccc(N6CCOCC6)cc5c4=O)cc3)CC2)cc1 the results were Vaccinia mCherry -3% and Vaccinia Venus -30%.
`Cc1cc(S(=O)(=O)Nc2cccc(O)c2)c(C)s1` gave Vaccinia mCherry -21% and Vaccinia Venus -11%.
`C=C(C)COc1ccc(-c2ncnc(C(F)(F)F)c2-c2ccccc2)c(O)c1` gave Vaccinia mCherry -5% and Vaccinia Venus 10%.
For CS(=O)(=O)Nc1cccc(-c2nc(Nc3ccccc3)c3ccccc3n2)c1 the results were Vaccinia mCherry inactive and Vaccinia Venus 0%.
Screening Cc1nc2ccccn2c1C(=O)N/N=C/c1ccc(F)cc1 returned Vaccinia mCherry -9% and Vaccinia Venus -2%.
Screening CCOC(=O)CC1ON(C)C(=O)N1c1ccc(Cl)cc1Cl (stereo not given) returned Vaccinia Venus 1%.
For CCCN(CC)c1ncnc2[nH]ncc12 the results were Vaccinia mCherry -9% and Vaccinia Venus -7%.
For COC(=O)C1=C(C(=O)OC)[C@@H]2N(Cc3ccccc3)c3ccccc3[C@@]23C[C@@H](C(=O)OC)N=C3N1 the results were Vaccinia mCherry inactive and Vaccinia Venus -11%.
`C=CCN(C)NC(=S)Nc1ccccc1` gave Vaccinia mCherry inactive and Vaccinia Venus -3%.
Screening COC(=O)c1cc(S(=O)(=O)N2CCN(c3ccccc3OC)CC2)cn1C returned Vaccinia mCherry inactive and Vaccinia Venus -18%.
`Cc1ccc(NC(=O)CN2C=NS(=O)(=O)c3ccccc32)cc1` gave Vaccinia mCherry -2% and Vaccinia Venus -6%.
`Cc1ccc(C(=O)N2CCCC2)cc1S(=O)(=O)Nc1cccc(C)c1C` gave Vaccinia mCherry -6% and Vaccinia Venus -10%.
Screening Cc1nnc(SCC(=O)Nc2ccc3c(c2)OCCO3)n1N returned Vaccinia mCherry inactive and Vaccinia Venus -4%.
`CCSc1nnc(NC(=O)c2c(-c3ccccc3Cl)noc2C)s1` gave Vaccinia mCherry inactive and Vaccinia Venus -8%.
`CCOC1=C2[C@@H](CN(S(=O)(=O)c3ccc(C)cc3)[C@H]2c2cccc3ccccc23)[C@H]2C(=O)N(CC)C(=O)[C@H]2C1` gave Vaccinia mCherry inactive and Vaccinia Venus -4%.
O=C(Nc1nnc(Cc2ccc([N+](=O)[O-])cc2)s1)c1ccc2c(c1)OCO2 was read as Vaccinia mCherry -11% and Vaccinia Venus 8%.
`O=C(NCCc1ccccc1)c1ccc(NC2=NC3CS(=O)(=O)CC3S2)cc1` (stereo not given) gave Vaccinia mCherry inactive and Vaccinia Venus -5%.
For CC(=C1C(=O)c2ccccc2C1=O)N1CCN(CCN=Cc2c(O)n(C)c(=O)n(C)c2=O)CC1 the results were Vaccinia mCherry -5% and Vaccinia Venus inconclusive.
`O=C(CCC1CCN(Cc2nccs2)CC1)Nc1ccccc1` gave Vaccinia mCherry inactive and Vaccinia Venus -12%.
`Cn1ncc(Cl)c1C(=O)N1CCN(c2ccc(F)cc2)CC1` gave Vaccinia mCherry inactive and Vaccinia Venus -17%.
For CC(=C\c1ccccc1)/C=C1/SC(=O)N(CCCC(=O)Nc2ccc(C(=O)O)cc2)C1=O the results were Vaccinia mCherry inactive and Vaccinia Venus 0%.
For Cc1nc2c(C#N)c(-c3ccc(Cl)cc3)ccn2n1 the results were Vaccinia mCherry -6% and Vaccinia Venus -8%.
Cc1nnc(SCCOC(N)=O)n1C was read as Vaccinia mCherry -7% and Vaccinia Venus -5%.
For Cc1ccc(C(=O)NC(Cc2cccc(F)c2)C(=O)O)cc1 (stereo not given) the results were Vaccinia mCherry -14% and Vaccinia Venus -14%.
For NC(=O)CSc1nnc(NC(=O)c2cccc(S(=O)(=O)N3CCCCC3)c2)s1 the results were Vaccinia mCherry 4% and Vaccinia Venus -3%.
For O=[N+]([O-])c1cc(O)c2ncccc2c1 the results were Vaccinia mCherry 1µM* and Vaccinia Venus 1µM*.
For Cc1cccc(-n2ccnc2SCC(=O)N2CCCc3ccccc32)c1C the results were Vaccinia mCherry inactive and Vaccinia Venus -10%.
O=C(CCCn1c(=O)c2cccn2c2cccnc21)Nc1ccccc1Br was read as Vaccinia mCherry -13% and Vaccinia Venus -7%.
COc1ccccc1NC(=O)CSCc1cc(=O)n2c(C)csc2n1 was read as Vaccinia mCherry 11%[7.34 µM] and Vaccinia Venus 11%[7.34 µM].
For Cc1ccc(NC(=O)Nc2c[nH]c(=O)[nH]c2=O)c(Cl)c1 the results were Vaccinia mCherry -6% and Vaccinia Venus -5%.
COc1cc(OC)cc(-c2nnc(SCC(=O)N3CCOCC3)o2)c1 was read as Vaccinia Venus inconclusive.
For CCOCCCNc1ncnc2c1cnn2-c1ccc(C)c(C)c1 the results were Vaccinia mCherry -24% and Vaccinia Venus -22%.
c1ccc2c3n(nc2c1)CCCO3 was read as Vaccinia mCherry inactive and Vaccinia Venus -4%.
`CCC(=O)N1CCNC(=O)C1CC(=O)Nc1ccc(C)c(Cl)c1` (stereo not given) gave Vaccinia Venus -12%.
Cc1c(C(=O)NCC2COCCO2)cnn1-c1ncc2c(n1)-c1ccccc1CC2 (stereo not given) was read as Vaccinia mCherry inconclusive and Vaccinia Venus inconclusive.
For Cc1cccc(OCC(=O)Nc2cc(S(=O)(=O)N3CCOCC3)ccc2N2CCCC2)c1C the results were Vaccinia mCherry -24% and Vaccinia Venus -20%.

Brought forward from above: 3 entries, then new ones.
`CCC(=O)N1CCNC(=O)C1CC(=O)Nc1ccc(C)c(Cl)c1` (stereo not given) gave Vaccinia Venus -12%.
Cc1c(C(=O)NCC2COCCO2)cnn1-c1ncc2c(n1)-c1ccccc1CC2 (stereo not given) was read as Vaccinia mCherry inconclusive and Vaccinia Venus inconclusive.
For Cc1cccc(OCC(=O)Nc2cc(S(=O)(=O)N3CCOCC3)ccc2N2CCCC2)c1C the results were Vaccinia mCherry -24% and Vaccinia Venus -20%.
For CC(C)(C)OC(=O)C(C(=O)OC(C)(C)C)c1ccc(Cl)nn1 the results were Vaccinia mCherry inactive and Vaccinia Venus -7%.
Cc1nc(C(=O)N/N=C/c2[nH]ncc2Br)cs1 was read as Vaccinia mCherry inactive and Vaccinia Venus -13%.
CCOC(=O)c1cnc(-n2nc(C)cc2C)nc1NC(C)c1ccccc1 (stereo not given) was read as Vaccinia mCherry -2% and Vaccinia Venus -12%.
For CCOC(=O)N1CCN(C(=O)C[C@@H]2C[C@@]3(C(=O)OCC)CCCC=C3N(Cc3ccc(Cl)cc3Cl)C2=O)CC1 the results were Vaccinia mCherry -18% and Vaccinia Venus -22%.
Screening CCN(CC)S(=O)(=O)c1cccc(C(=O)N/N=C/c2ccc(N3CCOCC3)cc2)c1 returned Vaccinia mCherry inactive and Vaccinia Venus -4%.
For COc1ccccc1N1CCN(Cc2cc(=O)c(OCC(=O)NC3CCCC3)co2)CC1 the results were Vaccinia mCherry -13% and Vaccinia Venus -7%.
`N#C/C(=C(/O)COc1cccc2ccccc12)c1nc2ccccc2[nH]1` gave Vaccinia mCherry -17% and Vaccinia Venus -16%.
`CC(=O)c1cccc(NC(=O)c2ccc3c(c2)c(C)c(C)n3Cc2ccc(Cl)cc2)c1` gave Vaccinia mCherry -30% and Vaccinia Venus -13%.
`CCC(=O)NC(Nc1cccc(C)n1)(C(F)(F)F)C(F)(F)F` gave Vaccinia mCherry -8% and Vaccinia Venus -8%.
Screening Cc1nn(CC(=O)N(C)C2CCS(=O)(=O)C2)c(C)c1[N+](=O)[O-] (stereo not given) returned Vaccinia mCherry -9% and Vaccinia Venus -1%.
`COc1cc(/C=N/n2c(SC)nnc(C(C)(C)C)c2=O)ccc1O` gave Vaccinia mCherry inactive and Vaccinia Venus -17%.
O=C(NC(Nc1cc(C(F)(F)F)ccc1Cl)C(=O)c1ccccc1)c1ccccc1 (stereo not given) was read as Vaccinia mCherry -18% and Vaccinia Venus -25%.
`CNc1ccccc1C(C)(C)c1cc(-c2ccco2)n[nH]1` gave Vaccinia mCherry -4% and Vaccinia Venus -2%.
`Cc1ccc(C(=O)Nc2ccc(F)cc2)cc1NC1=NC2CS(=O)(=O)CC2S1` (stereo not given) gave Vaccinia mCherry -10% and Vaccinia Venus 1%.
O=C(CN1C(=O)CSc2ncccc21)N1CCOCC1 was read as Vaccinia mCherry inactive and Vaccinia Venus -7%.
`COc1cc(CNn2c(C)n[nH]c2=S)cc(Cl)c1OCC(=O)NC(C)(C)C` gave Vaccinia mCherry -1% and Vaccinia Venus -22%.
`CCNc1nc(NCC)nc(N(C#N)C(C)C)n1` gave Vaccinia mCherry inactive and Vaccinia Venus -15%.
`CCOC(=O)/C(=N\Nc1cc(Cl)ccc1Cl)N1CCOCC1` gave Vaccinia mCherry inconclusive and Vaccinia Venus -12%.
COCCn1c(=NC(=O)CSCC(=O)NC2CCCCC2)sc2cc(OC)ccc21 was read as Vaccinia mCherry -11% and Vaccinia Venus -10%.
`Cc1ccc(NC(=O)/C=C\C(=O)NCC(=O)O)cc1C` gave Vaccinia mCherry -13% and Vaccinia Venus -13%.
For Cc1ccc(CCNC(=O)CN(C)S(=O)(=O)c2ccc3c(c2)c(=O)n(C)c(=O)n3C)cc1 the results were Vaccinia mCherry -26% and Vaccinia Venus -26%.
